Source: PubChem BioAssay
PAFAH1B3 FP inh – PAFAH1B3 enzyme inhibitors, primary screen, biochemical, fluorescence polarization, human | Platelet-activating factor acetylhydrolase IB subunit alpha1 (Homo sapiens), Q15102 | recombinant PAFAH1B3, FP-rhodamine probe | inhibition, % at 3.39 µM | 0.28% of 340,000 active | AID 492972, 2010;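 active = inhibition above the screen-wide average of all tested compounds plus 3 SD, cut at about 25% in these data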;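 note: 0% = enzyme with DMSO only and 100% = wells lacking PAFAH1B3 protein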
Target sequence (Q15102 whole entry, looked up): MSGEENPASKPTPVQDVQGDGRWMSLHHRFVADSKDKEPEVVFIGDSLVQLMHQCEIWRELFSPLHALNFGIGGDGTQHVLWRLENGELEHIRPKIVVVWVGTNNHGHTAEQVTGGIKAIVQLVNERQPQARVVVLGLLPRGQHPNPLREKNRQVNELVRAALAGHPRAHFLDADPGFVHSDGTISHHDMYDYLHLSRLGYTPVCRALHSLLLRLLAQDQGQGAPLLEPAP
LYPLA2 inh – LYPLA2 inhibitors, primary screen, counter-screen for PME1 inhibitor project, biochemical, fluorescence polarization, FP-Rh probe ABPP; Acyl-protein thioesterase 2 (Homo sapiens), O95372; recombinant LYPLA2; inhibition, % at 5.9 µM; 0.38% of 320,000 active; AID 2177, 2009;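 active = inhibition above the screen-wide mean plus 3 SD, limit set per campaign, cut at about 26% in these data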;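 note: 0% = LYPLA2 with DMSO and 100% = wells lacking LYPLA2 enzyme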
PAFAH2 FP inh – PAFAH2 enzyme inhibitors, primary screen, biochemical, fluorescence polarization, human; Platelet-activating factor acetylhydrolase 2, cytoplasmic (Homo sapiens), Q99487; recombinant PAFAH2, FP-rhodamine activity probe; inhibition, % at 3.39 µM; 0.99% of 340,000 active;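 active = inhibition above the mean over all tested compounds plus 3 SD, cut at about 30% in these data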;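 note: inhibitors block probe labeling of enzyme so polarization drops; 0% = enzyme with DMSO and 100% = wells lacking PAFAH2 protein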
PAFAH1B2 inh – PAFAH1B2 enzyme inhibitors, primary screen, biochemical, fluorescence polarization, human | Platelet-activating factor acetylhydrolase IB subunit alpha2 (Homo sapiens), P68402 | recombinant PAFAH1B2, FP-rhodamine activity probe | inhibition, % at 3.39 µM | 1.2% of 340,000 active | AID 492953, 2010;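 active = inhibition above the mean of all tested compounds plus 3 SD, cut at about 24% in these data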;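 note: 0% = enzyme with DMSO and 100% = wells lacking PAFAH1B2; many of its hits are not listed in these tables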
pPAFAH FP inh – pPAFAH enzyme inhibitors, primary screen, biochemical, fluorescence polarization, human. 1.5% of 330,000 active. recombinant pPAFAH, FP-rhodamine probe fluorescence polarization. Platelet-activating factor acetylhydrolase (Homo sapiens), Q13093. inhibition, % at 3.39 µM;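 active = inhibition above the mean inhibition across the screen plus 3 SD, cut at about 25% in these data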;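 note: inhibitors block binding of the rhodamine activity-based probe so polarization drops; 0% = enzyme with DMSO and 100% = wells lacking pPAFAH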
Target sequence (Q13093 whole entry, looked up): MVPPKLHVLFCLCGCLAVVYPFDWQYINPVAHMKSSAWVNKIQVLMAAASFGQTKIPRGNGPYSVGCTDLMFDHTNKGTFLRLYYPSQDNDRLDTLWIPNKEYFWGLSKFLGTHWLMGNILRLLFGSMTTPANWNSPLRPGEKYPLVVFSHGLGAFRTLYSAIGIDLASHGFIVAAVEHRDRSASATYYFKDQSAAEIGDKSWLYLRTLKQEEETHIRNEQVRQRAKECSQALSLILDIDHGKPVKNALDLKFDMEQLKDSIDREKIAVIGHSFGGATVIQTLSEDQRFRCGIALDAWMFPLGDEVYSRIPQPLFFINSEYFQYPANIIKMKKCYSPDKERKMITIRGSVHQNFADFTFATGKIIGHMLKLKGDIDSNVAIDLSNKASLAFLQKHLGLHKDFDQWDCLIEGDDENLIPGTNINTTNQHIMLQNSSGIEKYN
PAD4 inh – human PAD4 inhibitors, primary screen, biochemical, fluorescence polarization, 1536-well format; 0.41% of 330,000 active; Protein-arginine deiminase type-4 (Homo sapiens), Q9UM07; inhibition, % at 6.36 µM; recombinant PAD4, RCA probe fluorescence polarization;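 active = percent inhibition above a cutoff equal to the mean of all tested compounds plus 3 SD, cut at about 15% in these data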;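 note: 0% = PAD4 with RCA probe and DMSO and 100% = probe without PAD4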
LYPLA1 inh – LYPLA1 inhibitors, primary screen, counter-screen for PME1 inhibitor project, biochemical, fluorescence polarization, FP-Rh probe ABPP; 0.16% of 320,000 active; recombinant LYPLA1; AID 2174, 2009; inhibition, % at 5.9 µM; Acyl-protein thioesterase 1 (Homo sapiens), O75608;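 active = inhibition above the mean of all tested compounds plus 3 SD, set per campaign, cut at about 14% in these data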;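 note: inhibitors block serine hydrolase probe labeling of LYPLA1 so polarization falls; 0% = enzyme with DMSO and 100% = wells lacking LYPLA1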
Target sequence (O75608 whole entry, looked up): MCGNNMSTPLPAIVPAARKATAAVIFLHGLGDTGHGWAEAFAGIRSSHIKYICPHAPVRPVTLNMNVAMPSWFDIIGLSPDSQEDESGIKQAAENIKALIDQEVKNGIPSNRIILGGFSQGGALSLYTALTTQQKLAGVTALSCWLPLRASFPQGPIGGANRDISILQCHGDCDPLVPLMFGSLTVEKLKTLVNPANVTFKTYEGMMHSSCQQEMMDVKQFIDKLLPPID
GSTO1 inh – inhibitors of recombinant GSTO1, primary screen, counter-screen for RBBP9 inhibitor project, biochemical, fluorescence polarization; activity-based probe fluorescence polarization; inhibition, % at 5.96 µM; 1.1% of 300,000 active; AID 1974, 2009;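 active = inhibition above the campaign mean inhibition plus 3 SD, cut at about 35% in these data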;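 note: 0% = GSTO1-1 with DMSO and 100% = wells lacking GSTO1-1 enzyme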
The depositor's hits bear a star; nt = no result given. These rows are one share of the data; rates above refer to the full screens.

A first look:
SMILES	PAFAH1B3 FP inh	LYPLA2 inh	PAFAH2 FP inh	PAFAH1B2 inh	pPAFAH FP inh	PAD4 inh	LYPLA1 inh	GSTO1 inh
CCn1c2ccccc2c2cc(NC(=O)COC(=O)c3cc(OC)c(OC)cc3OC)ccc21	12	-2	2	-1	16	1	-2	8
CN(C)CCNC(=O)c1ccc2c(c1)N(Cc1ccc(F)cc1)CCS2	13	7	-2	5	3	-1	0	3
Cc1c(C=O)c2ccccn2c1C(=O)c1ccccc1Cl	-3	5	-2	-4	-3	-2	-1	-1
CCOc1ccc(C2CC(c3cccc(C)c3)n3nc(N)nc3N2)cc1 (stereo not given)	6	-7	-1	10	3	4	0	0
O=C(CCCOc1ccccc1)N1CCN(c2ccc(F)cc2)CC1	-2	5	5	9	7	-4	5	3

All compounds of this part, from the first entry:
SMILES	PAFAH1B3 FP inh	LYPLA2 inh	PAFAH2 FP inh	PAFAH1B2 inh	pPAFAH FP inh	PAD4 inh	LYPLA1 inh	GSTO1 inh
CCn1c2ccccc2c2cc(NC(=O)COC(=O)c3cc(OC)c(OC)cc3OC)ccc21	12	-2	2	-1	16	1	-2	8
CN(C)CCNC(=O)c1ccc2c(c1)N(Cc1ccc(F)cc1)CCS2	13	7	-2	5	3	-1	0	3
Cc1c(C=O)c2ccccn2c1C(=O)c1ccccc1Cl	-3	5	-2	-4	-3	-2	-1	-1
CCOc1ccc(C2CC(c3cccc(C)c3)n3nc(N)nc3N2)cc1 (stereo not given)	6	-7	-1	10	3	4	0	0
O=C(CCCOc1ccccc1)N1CCN(c2ccc(F)cc2)CC1	-2	5	5	9	7	-4	5	3
CC(C)CNc1nc2c(c(=O)n(C)c(=O)n2C)n1Cc1cccc(Br)c1	-3	2	1	-5	7	1	5	-4
O=C(c1nc[nH]c1C(=O)N1CCN(c2ccccc2)CC1)N1CCN(c2ccccc2)CC1	0	4	2	-1	3	-1	0	nt
COc1cc2nc(N(CCCN(C)C)C(=O)c3ccc(C(=O)c4ccccc4)cc3)sc2cc1OC	7	4	-1	-1	0	3	-1	-1
COc1ccc2c(c1OC)CN(C)CCc1cc3c(cc1C(O)C2)OCO3 (stereo not given)	3	-4	1	-7	-1	-2	-2	6
COC(=O)Cc1ccc(OC(=O)CCS(=O)(=O)c2ccc(Cl)cc2)cc1	3	-5	8	15	5	-3	0	11
Cc1cccc(C)c1Nc1nnc(SC/C(O)=C(\C#N)c2nc3ccccc3[nH]2)s1	4	0	14	1	15	-6	-4	11
COC(=O)c1cc(OC)c(OC)cc1NC(=S)N1CCN(C/C=C/c2ccccc2)CC1	-2	3	3	5	-2	-2	-3	3
CC1CCCN(c2nc3c(c(=O)[nH]c(=O)n3C)n2Cc2ccccc2Cl)C1 (stereo not given)	0	-1	11	0	2	-1	-1	1
COc1cc(-c2nnc(-c3ccco3)o2)ccc1OCc1ccccc1	-1	5	-5	2	9	-1	-4	-4
Cc1ccc(-n2c(Cc3cccn3C)nnc2SCC(=O)N2CCc3ccccc32)cc1	-6	-3	-2	0	23	1	-3	-4
C=C1[C@@H](OC(C)=O)CC[C@]2(C)[C@@H]1C[C@@H]1C[C@H](OC(C)=O)C(C)=C([C@@H](OC(C)=O)[C@@H]2OC(C)=O)C1(C)C	-2	11	0	1	2	2	5	0
CCOC(=O)c1[nH]c2ccc(OC)cc2c1NC(=O)N1CCOCC1	2	0	-3	-2	2	2	3	-4
O=C(c1ccc(S(=O)(=O)N2CCOCC2)cc1)N1CCN(c2ccc(F)cc2)CC1	3	-2	-7	1	-3	-11	2	-13
CCN(CC(=O)NCc1cccs1)c1ccc(S(=O)(=O)N2CCCC2)cn1	-1	9	2	5	4	-3	0	1
CCc1cc(C(=O)c2ccc(OC)cc2)c(NC(=O)CCC(=O)O)s1	nt	1	nt	nt	6	3	1	0
Cn1c2ccccc2c2c(C(=O)N3CCN(c4ccccc4)CC3)cn(C3CCCC3)c(=O)c21	-3	3	-1	-2	9	4	4	-2
Cc1c(/C=N/O)c2ccccn2c1C(=O)c1ccc(F)cc1	17	-7	24	12	2	1	-1	-7
CCCN1C(=O)c2[nH]nc(-c3cc(Cl)c(C)cc3O)c2C1c1ccc(O)c(OC)c1 (stereo not given)	12	0	-1	3	10	2	-10	-38
Cn1c(=O)n(Cc2ccc(Cl)cc2)c(=O)c2c1nc1n2CCN1Cc1ccco1	2	4	1	8	7	-3	-3	-4
O=C(Oc1ccc2c3c(c(=O)oc2c1)CCCC3)c1ccco1	2	6	4	0	0	0	2	6
Further entries:
SMILES	PAFAH1B3 FP inh	LYPLA2 inh	PAFAH2 FP inh	PAFAH1B2 inh	pPAFAH FP inh	PAD4 inh	LYPLA1 inh	GSTO1 inh
Cc1ccn2c(=O)nc(SCC(=O)N3CCN(c4ccccc4)CC3)nc2c1	12	-1	3	1	22	0	-2	2
COc1cc(/C=N/NC(N)=S)ccc1OCC(=O)N1CCOCC1	2	6	-1	6	-2	3	4	9
COc1cccc(-n2c(SCC(=O)O)nnc2-c2cccnc2)c1	4	10	4	0	-4	4	4	0
COc1ccc(C(=O)O/N=C(\C)c2cnccn2)cc1	1	21	14	-3	6	1	1	-4
O=C(O/N=C1\CCS(=O)(=O)c2sccc21)c1ccccc1	6	7	73*	-4	3	-6	8	4
Cn1c(=O)n(CCc2ccccc2)c(=O)c2c1nc1n2CCCN1CCc1ccccc1	-2	6	-1	-3	9	2	4	13
O=[N+]([O-])c1cc(Cl)ccc1N1CCN(c2ccccc2O)CC1	nt	4	nt	nt	-20	-2	0	1
Cc1ccc(C2CC(c3ccc(F)cc3)Nc3nc(N)nn32)cc1 (stereo not given)	5	-1	6	6	-3	-2	2	-4
COc1cnc(-c2ccccn2)nc1Sc1cccc(Cl)c1	-1	3	5	3	1	-3	-3	-4
CCOC(=O)C1=C(C)NC(=O)NC1c1ccc(OC(=O)c2ccco2)cc1 (stereo not given)	-7	-3	-9	-2	0	5	-2	4
Cc1ccc(Nc2ccc(S(=O)(=O)N3CCOCC3)cc2[N+](=O)[O-])c(C)c1	0	2	-3	5	6	0	-3	8
Cc1ccc(/C=N/NC(=O)CSc2nnc(-c3ccccc3)n2-c2ccc(Cl)cc2)o1	-6	0	-4	4	9	2	-1	3
CCOC(=O)c1c(NC(=O)Cc2ccccc2)sc2c1CC(C)(C)NC2(C)C	6	4	-1	-3	32*	4	1	2
Cc1oc(-c2cccc(Cl)c2)nc1CN1CCC(C(=O)NCc2cccnc2)CC1	8	0	2	1	3	3	-2	-4
Cc1ccn2c(=O)nc(SCC(=O)Nc3cc(C)on3)nc2c1	4	0	5	1	1	-2	2	1
O=C(Oc1ccc2c(=O)c(Oc3ccc4ccccc4c3)coc2c1)c1ccco1	-7	2	4	2	1	-3	-2	7
Cc1cccc2c1-c1sc(C(=O)Nc3ccccc3N3CCN(C)CC3)cc1CO2	1	-1	-2	6	1	3	-6	3
O=C(CCNC(=O)Cn1ccc2ccccc2c1=O)NCCN1CCN(c2cccc(Cl)c2)CC1	9	3	-2	4	12	3	-4	-2
COc1ccc(-n2c(SCC(=O)NCc3cccs3)nnc2-c2ccoc2C)cc1	-2	-3	-7	1	4	-2	1	-2
Cc1cc(C)cc(N(CCC#N)C(=O)COC(=O)c2ccc(OCc3c(C)noc3C)cc2)c1	-4	6	-2	-2	7	-3	-1	1
Cc1nnc(N2CCC(C(=O)N3CCCCCC3)CC2)c2nn(-c3ccc(Cl)cc3)c(C)c12	0	12	-4	8	4	-4	3	-2
COc1ccccc1NCC(=O)N/N=C/C=C/c1ccccc1	8	5	6	2	16	-3	-2	2
COC(=O)c1cc(=O)n(CCc2ccc(OC)cc2)c(=Nc2ccc(F)c(Cl)c2)s1	-10	-26	-8	-5	-5	3	-13	2
COc1ccc(C(=O)O/N=C(/c2ccccc2)c2ccncc2)cc1OC	6	1	74*	14	2	-5	1	4
CCOc1ccc(NC(=O)CSc2ccc(-c3ccco3)nn2)cc1	9	6	4	7	6	1	-1	6

Part of the list above, limited to PAFAH1B3 FP inh and LYPLA2 inh:
SMILES | PAFAH1B3 FP inh | LYPLA2 inh
CCn1c2ccccc2c2cc(NC(=O)COC(=O)c3cc(OC)c(OC)cc3OC)ccc21 | 12 | -2
CN(C)CCNC(=O)c1ccc2c(c1)N(Cc1ccc(F)cc1)CCS2 | 13 | 7

The list continues:
SMILES	PAFAH1B3 FP inh	LYPLA2 inh	PAFAH2 FP inh	PAFAH1B2 inh	pPAFAH FP inh	PAD4 inh	LYPLA1 inh	GSTO1 inh
CCCCN1C(=N)N([C@@H](CCC)CN2CCC[C@H]2CN2C(N)=NC[C@H]2C(C)C)C[C@H]1[C@H](C)CC	2	nt	-11	6	-1	0	nt	nt
COCC(=O)Nc1nc2n(n1)C(c1ccc(Cl)cc1)CC(c1ccc(OC)cc1)N2 (stereo not given)	6	-1	-1	4	1	2	-2	-1
CCOC(=O)c1ccccc1NC(=O)CSc1ccc(-c2ccccn2)nn1	3	1	-7	-7	-6	1	-2	3
CCOc1ccc(-n2c(SCC(=O)Nc3ccc4c(c3)OCCO4)nc3c(c2=O)SCC3)cc1	12	5	6	2	2	1	1	8
CC1CN(c2ccccc2)c2nc3c(c(=O)[nH]c(=O)n3C)n2C1 (stereo not given)	1	-1	-6	3	3	0	-3	3
c1cc2c3c(cccc3c1)C(N1CCCCC1)=N2	4	-4	1	2	3	-2	1	4
N#Cc1nc(-c2ccc(OCc3ccccc3)cc2)oc1NCCCN1CCOCC1	8	13	-13	8	16	0	4	-5
Cn1c(NCc2ccco2)nc2c1c(=O)n(Cc1ccc(Cl)c(Cl)c1)c(=O)n2C	6	-1	6	-1	3	-8	3	1
CCOC(=O)c1[nH]c2ccc(F)cc2c1NC(=O)CCN1CCSCC1	-6	-3	-1	-5	1	-3	-1	-8
COc1ccc(OC)c(NS(=O)(=O)c2ccc(Br)s2)c1	nt	-9	nt	nt	5	-8	-2	7
CC(C)(C)c1ccc(C(=O)Oc2ccc3c(c2)OCC3=O)cc1	-1	4	1	8	8	-5	1	8
Nc1ccc2nc(SCC(=O)N3CCN(c4ccccc4)CC3)sc2c1	11	3	12	8	2	1	2	10
c1ccc2oc(-c3[nH]ncc3CN3CCC(N4CCSCC4)CC3)cc2c1	-2	-1	5	-7	-1	-3	-3	-3
Cc1ccc(S(=O)(=O)C(C#N)c2nc3ccccc3nc2OCCO)cc1 (stereo not given)	2	-5	-6	7	12	1	-2	1
COc1cc(C=O)ccc1OC(=O)c1ccc(C(C)C)cc1	-1	-1	-2	2	9	0	-2	-1
COc1ccc2cc(-c3[nH]ncc3CN3CCCN(c4ccccc4)CC3)ccc2c1	9	0	7	-4	2	0	-4	0
N#Cc1nc(-c2ccc(OCc3ccc(Cl)cc3)cc2)oc1N1CCC(C(N)=O)CC1	3	2	2	6	5	0	0	8
Cc1ccc(S(=O)(=O)C(C#N)c2nc3ccccc3nc2N2CCN(C)CC2)cc1 (stereo not given)	9	4	2	10	3	4	0	4
COCCn1c(SCC(=O)N2CCN(c3ccccc3)CC2)nc2c(c1=O)SC(C)C2 (stereo not given)	-3	-6	-2	5	10	1	-1	3
